Bioassay records (PubChem BioAssay)
NPR1 antag – Natriuretic polypeptide receptor (hNpr1) antagonism - Primary qHTS. Atrial natriuretic peptide receptor 1 (Homo sapiens), P16066. HEK293 hNpr1 GloSensor cGMP, ANP-stimulated luminescence. Potency, µM (series often up to 46.3 µM), for the others: top-dose activity change, negative = inhibition, actives largely listed as inhibitors. 1.6% of 76,000 active; active = well fitted inhibition curve with a large enough effect; inconclusive = small, poorly fitted or top-dose-only effect; inactive = no such curve, though single readings can be large or run the other way;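 further: nearly all actives have a fitted effect of over 60% in size; nearly all hits also lower the signal before the agonist is added; a reference antagonist and vehicle were the controls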
Target sequence (P16066 whole entry, looked up): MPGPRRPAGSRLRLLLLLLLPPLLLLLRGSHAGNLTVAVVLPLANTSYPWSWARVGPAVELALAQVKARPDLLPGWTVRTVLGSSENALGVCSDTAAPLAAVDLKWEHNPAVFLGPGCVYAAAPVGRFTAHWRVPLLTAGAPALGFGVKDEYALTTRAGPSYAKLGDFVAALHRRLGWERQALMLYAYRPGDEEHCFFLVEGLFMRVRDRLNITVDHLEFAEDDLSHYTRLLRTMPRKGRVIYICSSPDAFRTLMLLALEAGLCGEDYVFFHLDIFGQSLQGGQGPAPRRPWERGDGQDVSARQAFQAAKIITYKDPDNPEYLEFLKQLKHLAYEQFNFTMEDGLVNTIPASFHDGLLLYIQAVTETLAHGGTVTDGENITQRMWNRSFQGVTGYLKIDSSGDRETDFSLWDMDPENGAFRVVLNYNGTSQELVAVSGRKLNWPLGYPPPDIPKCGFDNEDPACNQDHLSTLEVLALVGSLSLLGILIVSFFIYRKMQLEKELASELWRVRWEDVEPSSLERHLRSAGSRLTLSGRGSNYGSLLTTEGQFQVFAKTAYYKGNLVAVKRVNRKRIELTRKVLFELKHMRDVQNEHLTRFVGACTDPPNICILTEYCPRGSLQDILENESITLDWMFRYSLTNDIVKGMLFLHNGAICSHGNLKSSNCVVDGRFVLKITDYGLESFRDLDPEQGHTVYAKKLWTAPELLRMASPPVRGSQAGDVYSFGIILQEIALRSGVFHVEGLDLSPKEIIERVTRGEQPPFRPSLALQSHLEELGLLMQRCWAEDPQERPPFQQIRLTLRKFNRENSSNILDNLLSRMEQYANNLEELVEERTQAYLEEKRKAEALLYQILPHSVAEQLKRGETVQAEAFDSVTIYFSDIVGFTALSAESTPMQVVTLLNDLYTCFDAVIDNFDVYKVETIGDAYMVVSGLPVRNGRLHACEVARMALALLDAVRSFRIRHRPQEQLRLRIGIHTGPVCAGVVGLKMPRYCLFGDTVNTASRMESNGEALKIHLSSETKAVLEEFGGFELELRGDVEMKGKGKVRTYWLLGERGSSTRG
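HEK293 cells stably expressing human Npr1 and cGMP GloSensor pGS-40F, loaded 2 h with 2% GloSensor reagent, given compound 30 min at room temperature. Luminescence read before and 20 min after 0.1 nM hNppA.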
* marks the source's active call; other numbers are inactive results; ? = inconclusive; [ ] = another dose, or the depositor's remark. On the % scale 0 is the no-effect control and ±100 the full control effect; potency means the concentration at half of the fitted maximal effect.

Sample of the layout (3 entries):
NPR1 antag | canonical_smiles
5% | C=CCN(C)C(=O)CC1COc2ccc(C(=O)N(C)C)cc2N1C (stereo unspecified)
3% | O=C(c1cnccn1)N1CCC2(CC1)NCCc1c2[nH]c2ccccc12
-1% | Cc1cccc(C(=O)NCCC2CCN(C(=O)Nc3ccc(F)cc3F)CC2)c1

The list itself, from the start:
NPR1 antag | canonical_smiles
5% | C=CCN(C)C(=O)CC1COc2ccc(C(=O)N(C)C)cc2N1C (stereo unspecified)
3% | O=C(c1cnccn1)N1CCC2(CC1)NCCc1c2[nH]c2ccccc12
-1% | Cc1cccc(C(=O)NCCC2CCN(C(=O)Nc3ccc(F)cc3F)CC2)c1
5% | COc1ccc(/C=C/c2ccc3c(c2)C(=O)N2CC[C@H](NC(=O)CCC(=O)O)[C@H]2C(=O)N3)cc1
-1% | C=CCN1CC(C(=O)N2CCn3cncc3C2)CCC1=O (stereo unspecified)
-5% | CCCS(=O)(=O)N1CCCC(c2nc(-c3ccccc3)no2)CCNC(=O)CC1 (stereo unspecified)
2% | Cc1ccc(CNC(=O)N2CC[C@@H]3C(=O)NCCCCCCN(Cc4ccncc4)[C@@H]3C2)cc1
-3% | O=C(Cc1c[nH]c2ccccc12)N1CCC(c2noc(C3CC3)n2)C1 (stereo unspecified)
-7% | CC(C)(C)C1CCC2(CC1)NC(=O)N(CC(=O)Nc1ccc(F)cc1F)C2=O (stereo unspecified)
-3% | COC(=O)CNC(=O)N1CCc2c(nc3cc(-c4ccccc4Cl)[nH]n3c2=O)C1

Given as labelled records: part of the list above.
Cc1ccc(CNC(=O)N2CC[C@@H]3C(=O)NCCCCCCN(Cc4ccncc4)[C@@H]3C2)cc1
- NPR1 antag = 2%

CC(C)(C)C1CCC2(CC1)NC(=O)N(CC(=O)Nc1ccc(F)cc1F)C2=O (stereo unspecified)
- NPR1 antag = -7%

C=CCN(C)C(=O)CC1COc2ccc(C(=O)N(C)C)cc2N1C (stereo unspecified)
- NPR1 antag = 5%

CCCS(=O)(=O)N1CCCC(c2nc(-c3ccccc3)no2)CCNC(=O)CC1 (stereo unspecified)
- NPR1 antag = -5%

Continued:
NPR1 antag | canonical_smiles
-1% | CN(C)C[C@@H]1CN(C2CCOCC2)C[C@H]1NC(=O)c1ccoc1
? | Cc1ccccc1OCc1nc(C2CN(C(=O)Cc3c[nH]c4ccccc34)C2)no1
1% | COCCOCC(=O)N1CCCCCNC(=O)[C@@H]2CCC[C@@H]21
-3% | CCN1CCC2(CCC1=O)CN(Cc1ccc(C(=O)O)cc1)CCN2C (stereo unspecified)
2% | CC(C)OCCCNC(=O)C1Cn2cccc2C(=O)N1Cc1cccnc1 (stereo unspecified)
1% | O=C(C1CC1)N1CCC(c2noc(-c3ccccc3)n2)C1 (stereo unspecified)
1% | Cc1nnc([C@@H]2CC(F)(F)CN2C(=O)c2ccc3ncccc3c2)o1
1% | CCCc1ncncc1C(=O)N1CCCC2(CC1)CNC(=O)O2 (stereo unspecified)
1% | Cc1nn(C)c(C)c1-c1ccnc(NCCC2(O)CCN(C)CC2)n1
-16% | Fc1ccc(CN2CCC(Cc3nc(-c4cccnc4)n[nH]3)C2)cc1F (stereo unspecified)
1% | COC1CCCN(c2ccc(C(=O)NCCCn3ccnc3C(C)C)cn2)C1 (stereo unspecified)
1% | O=C(COc1ccccc1)NC1CCc2n[nH]c(=O)n2CC1 (stereo unspecified)
3%[70.6 µM] | O=C(NCc1ccccc1)c1cnc2n1CCN(Cc1cccs1)CC2
4% | Cn1ncc(N2CCOC(CCNC(=O)C3(C)CC3)C2)cc1=O (stereo unspecified)
-3% | Cc1ccc(C(=O)NC2CCN(c3cnn(C)c(=O)c3)CC2)cc1F
0%[70.6 µM] | CCCNC(=O)N[C@@H]1C[C@H](COc2cccc(C)n2)[C@@H](O)[C@H]1O
-1% | CC1CCC2(CC1)NC(=O)N(CC(=O)NC1CCCCC1)C2=O (stereo unspecified)
-25% | O=C1Nc2ccccc2CC12CCCCN2Cc1ccc(C(F)(F)F)cc1 (stereo unspecified)
-13% | Cc1c(F)cccc1NC(=O)N1CCCC(Cn2c(C)nc3cccnc32)C1 (stereo unspecified)
-3% | O=C(Cn1nc2c(cc1=O)CCCC2)NC1CCCCC1

Look-ups from the results shown.
CC1CCC2(CC1)NC(=O)N(CC(=O)NC1CCCCC1)C2=O (stereo unspecified) in NPR1 antag: -1%
O=C1Nc2ccccc2CC12CCCCN2Cc1ccc(C(F)(F)F)cc1 (stereo unspecified) in NPR1 antag: -25%
COC1CCCN(c2ccc(C(=O)NCCCn3ccnc3C(C)C)cn2)C1 (stereo unspecified) in NPR1 antag: 1%

More entries:
NPR1 antag | canonical_smiles
-1% | O=C1CC(c2ccccc2)N(C(=O)C2CC2)CCCNCCN1 (stereo unspecified)
-5%[70.6 µM] | Clc1ccc(-c2cnc([C@@H]3COCCN3CC3CC3)[nH]2)s1
-13%[70.6 µM] | CN1C(=O)[C@@H]2C[C@@H](CN2Cc2ccc(Cl)cc2)Oc2ccccc21
? | O=C(Nc1cccc(C(F)(F)F)c1)O[C@@H]1CO[C@H]2[C@@H]1OC[C@@H]2NC(=O)c1ccccc1
0% | CC(C)C(=O)N1CCCCCCNC(=O)[C@@H]2CCCC[C@@H]21
-1% | CCc1nc2nccc(-c3cc4ccccc4o3)n2n1
-1% | CN1c2cc(C(=O)NCc3ccc(Cl)cc3)ccc2C(=O)N2CCCCCC21 (stereo unspecified)
0% | Cc1ccc(C)c(Cn2c(=O)c(-c3noc(C)n3)c3n(c2=O)CCCCC3)c1
3%[70.6 µM] | Cc1cccc(OC[C@H]2C[C@@H](NCc3ccc(C)o3)[C@H](O)[C@@H]2O)n1
-1% | Cn1cc([C@@H](NC(=O)CCC2=NNC(=O)CC2)C2CC(O)C2)cn1 (stereo partly specified)
0%[70.6 µM] | C#CCN(C)C(=O)[C@@H]1CCCN1[C@@H](C(=O)NC)c1ccccc1
5% | Cc1cc(C[C@@H]2COC[C@@H]2NC(=O)c2c(-c3ccccc3)noc2C)on1
-15% | CCn1ccc(C(=O)NC2CCCN(c3cc(-c4ccc(Cl)cc4)[nH]n3)C2)n1 (stereo unspecified)
-6% | COc1ccc(NC(=O)N2CCCC(Cn3cnc4cccnc43)C2)cc1 (stereo unspecified)
5% | CCc1noc([C@@H]2CC(F)(F)CN2C(=O)CCc2c(C)noc2C)n1
-20%[70.6 µM] | CN(C)[S+](=O)([O-])c1ccc2c(c1)OCCN(Cc1ccc(F)cc1)C2
6% | CC(=O)N1CCc2[nH]cnc2C12CCN(C(=O)C(C)Oc1ccccc1)CC2 (stereo unspecified)
-2%[70.6 µM] | CCCNC(=O)NC[C@H]1O[C@@H]2C[C@@H](CC(=O)NCc3cnn(C)c3)O[C@@H]2[C@@H]1O
0%[70.6 µM] | O=C(NC1CC1)c1ccn2nccc2c1
-21% | CCC(CC)c1nc(COC(=O)C2=CN(Cc3ccc(OC)cc3)S(=O)(=O)N=C2C)no1
0% | CNC(=O)[C@@H]1CN(C(=O)Cc2c[nH]c3ccccc23)C[C@H]1COC
5% | O=C(Nc1cccc(F)c1)N1CC2CC(C1)[C@H]1CCCC(=O)N1C2 (stereo partly specified)
-3% | Cc1nn(C)c(C)c1CCN(C)Cc1ccc(=O)n(C)c1
? | Cc1ccc(CN2CCc3nc(C(=O)Nc4cccnc4)oc3CC2)cc1
3% | CN1C(=O)Cc2ccccc2C1C(=O)N1CCN(c2ccc(F)cc2)CC1 (stereo unspecified)
0% | CN1C[C@@H]2CC[C@H](C1)N(Cc1cccc(OCCN3CCOCC3)c1)C2
-2% | O=C1c2c(nc(CN3CCC(F)(F)CC3)n2Cc2ccccc2)NCCN1Cc1cccc(Cl)c1
8.9µM* | COc1ccc(-n2nc(C)c([C@@H]3C=C[C@@H](NC(=O)NCc4ccccc4)C3)c2C)cc1
2% | CC(C)c1nc2c(NC(=O)c3cccc(Br)c3)cccn2n1
-3% | CC(NC(=O)C1(c2ccc(NS(C)(=O)=O)cc2)CCCCC1)c1ccc(F)cc1 (stereo unspecified)
-4%[70.6 µM] | O=C(NCc1ccccc1)c1nc2c(o1)CCN(CC1CCCC1)CC2
-13% | COC[C@@H]1CN(C(=O)Cc2ccc(Cl)cc2)C[C@H]1c1ccncc1
-2% | COc1ccc(Cn2c(C3CCN(C(=O)c4cccs4)CC3)n[nH]c2=O)cc1
-13% | CN1CC2(CCN(C(=O)Nc3ccc4c(c3)OCCO4)CC2)CC1C(=O)N1CCOCC1 (stereo unspecified)
2% | CCOC(=O)c1ccccc1NC(=O)Cn1c(-c2cnccn2)nc(C)c(C)c1=O
-2%[70.6 µM] | O=C(Nc1cccnc1)[C@@H]1C[C@@H](c2ccc(F)cc2)N([S+](=O)([O-])c2cccnc2)C1
-2%[70.6 µM] | O=C1OCC2(CCN([S+](=O)([O-])c3ccccc3)C2)N1CCN1CCOCC1 (stereo unspecified)
25µM* | O=C(NCC1CC1)c1nc2c(o1)CCN(Cc1ccc3c(c1)CCO3)CC2
14%[70.6 µM] | CN(C(=O)c1ccc(F)cc1)C1CCOc2ccccc21 (stereo unspecified)
-4% | C#CCOc1ccccc1CN1CCN(c2ncc(F)cn2)CC1
4% | Cc1nn(C)cc1CN(C)C(=O)C1CN(S(=O)(=O)c2cccnc2)CC12CCCCC2 (stereo unspecified)
-10% | Cc1ccc(-c2nocc2CCC(=O)NCc2ccc(Cl)cc2)cc1
4%[70.6 µM] | c1ccc(OCc2cc(CC3(NCc4cccnc4)COC3)no2)cc1
0%[70.6 µM] | CN1CCN(c2ccc(-c3n[nH]c4c3CC(=O)N(CC3CC3)C4)cc2)CC1
6% | O=C(Nc1cccc(-n2cccn2)c1)C1CCCN1C(=O)c1ccoc1 (stereo unspecified)
3% | CC(C)Cn1nc(C(=O)O)c2c1CCN(C(=O)CC(C)c1ccccc1)C2 (stereo unspecified)
2% | Cc1ccc(-c2ccc3nnc(CNC(=O)C4CCCC4)n3n2)cc1C
2% | CC(C)N(Cc1ccccc1)Cc1nnc2cc(-c3nc(-c4ccccc4)no3)ccn12
4% | Cc1cccc(CC(=O)N2C[C@@H](F)C[C@H]2C(=O)N2CCCCC2)c1
-7%[70.6 µM] | O=C(Cc1c[nH]c2ncc(-c3ccccc3)cc12)Nc1ccc(C(F)(F)F)cc1

(cont.)
NPR1 antag | canonical_smiles
-18% | Fc1ccc(CN2CCC(Oc3ccccc3-c3nc(-c4cnccn4)no3)C2)cc1F (stereo unspecified)
-1% | Cc1ccc(CNC(=O)N2CCCC(CN3CCC(C)CC3)CC2)cc1 (stereo unspecified)
-3% | CN(CCCn1cc(-c2cncnc2)nn1)c1ccccc1
-11% | Cc1ccc(CNC(=O)c2noc(-c3ccc(C)cc3)n2)cc1
1% | Cc1nc(N2CCC(NCCNc3ccncc3C)CC2)c2ccsc2n1
-2%[70.6 µM] | C[C@@H](NC(=O)NC(C)(C)C)c1onc(-c2ccccc2)c1C(=O)O
-1% | Cc1nn(C)cc1C(=O)N1C[C@@H](CO)[C@H](c2ccccn2)C1
-2% | CSCC(=O)N1CCc2[nH]nc(-c3ccc4c(c3)OCO4)c2C1
8% | COc1ccc(S(=O)(=O)N2C[C@@H](Oc3cccnc3)C[C@@H]2C(=O)N2CCOCC2)cc1
-10% | O=C(Nc1cnc(-c2ccc(Cl)cc2)nc1)c1ccc(F)c(F)c1
-6%[70.6 µM] | CN(c1ccccc1)c1ccc2nnc(-c3cc(C(=O)NCc4ccncc4)ccn3)n2n1
5% | CN(Cc1cn(-c2ccccc2)nn1)Cc1cc(-c2ccncc2)no1
-28% | O=C(Cc1cccs1)N[C@H]1CCN2C(=O)N(c3ccc(Oc4ccccc4)cc3)C(=O)[C@@H]2C1
3% | Cc1cccc(CN2CCn3c(nnc3[C@@H]3C[C@@H](O)CN3C)C2)c1
5%[70.6 µM] | CC(=O)NC[C@H]1Cn2cc(-c3ccccc3)nc2CO1
0% | Cc1oc(-c2ccc(C(F)(F)F)cc2)nc1CN(C)C(C)c1cccs1 (stereo unspecified)
-3%[70.6 µM] | COCCNC(=O)C(C)[C@@H]1CC[C@@]2(C)CC[C@H](NC(=O)c3ccccc3)[C@@H](C)[C@@H]2[C@H]1O (stereo partly specified)
1% | COC1CN(C2CCN(C(=O)CC3CCCCC3)CC2)C12CCOCC2 (stereo unspecified)
0% | O=C(c1ccccc1F)N1CCC2(CC1)OCC(C(=O)N1CCCC1)N2C(=O)c1ccco1 (stereo unspecified)
-2% | CCC(=O)N1CCCCCCNC(=O)[C@@H]2CCC[C@@H]21
-10%[70.6 µM] | CC1(CNc2ccccc2)COc2ccc(C(=O)NC3CCOCC3)cc2N1 (stereo unspecified)
0% | CO[C@H]1C(=O)N(C(C)C)[C@H]1C1CCN(C(=O)NC2CCCCC2)CC1
-3% | O=C(NCc1ccco1)C1COC2(CCN(C(=O)c3ccc(F)cc3)CC2)N1C(=O)c1ccco1 (stereo unspecified)
0% | O=C([C@H]1C[C@H](Oc2ccccc2)CN1S(=O)(=O)c1ccccc1)N1CCOCC1
-14% | Cc1ccc(-c2nnc(C3CN(C(=O)c4ccc(F)c(F)c4)CC34CCOCC4)o2)cc1 (stereo unspecified)
-13% | O=C(c1cccs1)N1CCc2nc(OCC3CC3)ccc2C1
0% | Cc1ccn2c(C(=O)N3CCCn4nc(C(O)CO)cc4C3)nnc2n1 (stereo unspecified)
4%[70.6 µM] | COc1ccc(-c2ccc3ncc(Nc4cccc(F)c4)n3n2)cc1OC
-6% | CN1c2cc(C(=O)Nc3ccc(N4CCOCC4)cc3)ccc2C(=O)N2CCCCC21 (stereo unspecified)

Some of the compounds tested, so the mix of outcomes need not match the whole.
